# TRPML1 agonist – qHTS for Agonists of the Human Mucolipin Transient Receptor Potential 1 (TRPML1) | TRPML1-expressing cells, Ca2+ dye fluorescence, FDSS; host cell line not named in the record; reference of the full effect not given here | activation, % (concentration not given with the values) | Mucolipin-1 (Homo sapiens), Q9GZU1 | 0.12% of 410,000 active; in the data active = activation above about 50%; inconclusive = about 30% to 50%; inactive = below about 30%; note: 0% is about no effect; the text of the record puts the active cut at 80%
#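 In this qHTS format, compounds were pin-transferred onto Ca8-dye-loaded TRPML1-DL cells induced with Tet overnight, and intracellular Ca2+ fluorescence was recorded kinetically for 110 s after a 10 s baseline. A subsequent 4uM final 54-4 (EC80) addition followed by a second 110 s read served as the antagonist phase.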
# TRPML1 blocker – qHTS for Inhibitors of the Human Mucolipin Transient Receptor Potential 1 (TRPML1); 0.02% of 390,000 active; TRPML1-inducible cells, Ca2+ dye fluorescence, FDSS; stronger effect = lower value; inhibition of EC80 agonist-evoked calcium signal; Mucolipin-1 (Homo sapiens), Q9GZU1; activity change, negative = inhibition, % (test concentration not listed); in the data active means activity change below about -50%; inconclusive means about -30% to -50%; inactive means above about -30%;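 note: stimulus is agonist 54-4 at its EC80 concentration; % is set by controls: 0 for no effect and ±100 for the full control effect; compound concentration not given in the record; the text of the record puts the active cut at -80%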
#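 TRPML1-DL cells, Tet-induced overnight (~16 h, 37 °C) at 1,500 cells/well, were loaded with Ca8 no-wash dye plus quencher for 45-90 min at room temperature. Compounds were pinned during FDSS kinetic reading; agonist 54-4 at EC80 (4 uM final) then added.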
# Six1-Eya2 blk – qHTS Assay for Inhibitors of the Six1/Eya2 Interaction | activity change, % (no concentration beside the values) | AID 651725, 2012 | 0.56% of 360,000 active | AlphaScreen GST-Six1/His-Eya2 binding, biochemical; stronger effect = lower value; control for the full effect not named in the record | Homeobox protein SIX1 (Homo sapiens) + Protein phosphatase EYA2 (Homo sapiens), …; in the data active = activity change below about -65%; inconclusive = about -30% to -65%; inactive = above about -30%; note: % is set by controls: 0 for no effect and ±100 for the full control effect; compound concentration not given in the record
# Target sequence (O00167 whole entry, looked up): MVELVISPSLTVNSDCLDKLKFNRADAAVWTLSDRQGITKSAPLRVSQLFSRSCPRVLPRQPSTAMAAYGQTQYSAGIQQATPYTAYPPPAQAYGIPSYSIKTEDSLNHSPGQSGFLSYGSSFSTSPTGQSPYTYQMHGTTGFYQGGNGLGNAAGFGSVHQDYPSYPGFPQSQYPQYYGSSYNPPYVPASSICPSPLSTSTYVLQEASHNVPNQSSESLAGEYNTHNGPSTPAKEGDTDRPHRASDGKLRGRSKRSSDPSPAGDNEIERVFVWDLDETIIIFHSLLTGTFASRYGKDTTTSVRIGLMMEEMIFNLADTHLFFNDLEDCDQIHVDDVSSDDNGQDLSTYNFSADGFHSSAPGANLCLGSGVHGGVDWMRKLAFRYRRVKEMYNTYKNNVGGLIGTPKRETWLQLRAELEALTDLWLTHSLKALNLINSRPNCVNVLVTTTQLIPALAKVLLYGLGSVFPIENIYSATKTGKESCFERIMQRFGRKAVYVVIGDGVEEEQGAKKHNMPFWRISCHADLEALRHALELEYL
# Target sequence (Q15475 whole entry, looked up): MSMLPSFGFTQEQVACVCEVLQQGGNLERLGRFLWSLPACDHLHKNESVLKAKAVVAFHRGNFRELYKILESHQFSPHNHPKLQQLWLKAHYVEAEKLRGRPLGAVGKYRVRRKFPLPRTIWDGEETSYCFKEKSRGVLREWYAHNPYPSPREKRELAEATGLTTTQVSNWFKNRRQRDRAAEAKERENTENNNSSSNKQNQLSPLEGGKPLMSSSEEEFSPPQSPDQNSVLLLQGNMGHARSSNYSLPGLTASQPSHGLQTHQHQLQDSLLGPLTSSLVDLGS
#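 Compounds are tested against tagged Six1 and Eya2 proteins bridged by glutathione donor and nickel acceptor beads; after a one-hour incubation at 37 °C without light, AlphaScreen emission is recorded.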
# D2 ag – Beta-Arrestin HTS for Positive Allosteric Modulators of the Human D2 Dopamine Receptor: Agonists. D(2) dopamine receptor (Homo sapiens), P14416. DiscoveRx PathHunter D2 beta-arrestin, luminescence, 90 min; 100% = 57 uM dopamine signal. activation, % (no concentration beside the values). 0.084% of 360,000 active. AID 624465, 2012; in the data active = activation above about 40%; inconclusive = about 15% to 40%; inactive = below about 15%; note: compound concentration not given in the record; the text of the record calls up to 30% inactive
#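 DiscoveRx PathHunter D2 beta-arrestin cells (2,100/well) attached overnight, then compound-stimulated 90 min at 37 C in HBSS/10 mM HEPES/0.1% Tween-20 buffer; beta-galactosidase complementation read by luminescence after 1 h at ambient temperature. Dopamine 57 uM final (EC100) as control.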
# CtBP-E1A inh – qHTS Assay for Inhibitors of the CtBP/E1A Interaction; CtBP / adenovirus E1A interaction (AlphaScreen); 0.49% of 340,000 active; AlphaScreen GST-E1A/His-CtBP binding, 1536-well; stronger effect = lower value; control for the full effect not named in the record; activity change, % (no concentration beside the values); AID 651724, 2012; in the data active means activity change below about -65%; inconclusive means about -30% to -65%; inactive means above about -30%; note: % is set by controls: 0 for no effect and ±100 for the full control effect; compound concentration not given in the record
#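 Steps: dispense buffer (Tris pH 8.0, NaCl 300 mM, TCEP 1 mM, BSA, Tween 20); add 5X protein mix (GST-E1A, His-CtBP, 125 nM each); pin 23 nL compound; 2 h at 37 °C, dark; add 5X beads (50 ug/mL); 1 h; read.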
# PINK1 modulator – A Quantitative High throughput Screen to Identify Chemical Modulators of PINK1 Expression; 0.2% of 410,000 active; Potency, µM (highest dose often 76.6 µM), for the others: at the top dose activation (PINK1 increase), actives largely listed as activators; PINK1 immunofluorescence, high-content cytometry, 24 h; active = well fitted activation curve with a large enough effect; inconclusive = small, poorly fitted or top-dose-only effect; inactive = flat fitted curve, though single readings scatter; cell line not stated here;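 note: potency is the fitted concentration of half-maximal effect; % of control where 0% means no effect; nearly all actives have a fitted effect of over 65% in size; a mitochondrial uncoupler was the plate control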
#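 A stable cell line was treated with compounds at 5 concentrations for 24 hours, with CCCP as control. PINK1 levels and mitochondrial localization were measured by immunofluorescence with mitochondrial, cell and nuclear markers after fixation, read by laser-scanning cytometry.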
# * marks the source's active call; other numbers are inactive results; x = not tested or not shown; & = joins results of further samples; [ ] = remark or other dose.
SMILES,TRPML1 agonist,TRPML1 blocker,Six1-Eya2 blk,D2 ag,CtBP-E1A inh,PINK1 modulator
Cc1ccc(S(=O)(=O)c2nnn3c2nc(NC(C)c2ccccc2)c2sccc23)cc1 (centres undefined),0.4,34.3,x,x,x,0.6%
Cc1ccc(S(=O)(=O)c2nc(-c3ccco3)oc2SC(C)C)cc1,-0.1&-0.5,10.5&-13.7,-7.7,0.0,4.1,2.6%&0.7%
CN(C(=O)CSc1ncnc2sccc12)C1CCS(=O)(=O)C1 (centres undefined),1.2,7.6,2.1,6.2,5.0,0.3%
COC(=O)c1c(N2C(=O)Nc3ccccc3N2O)sc(C)c1C,1.7,-16.8,1.2,-3.4,-2.0,1.5%
Cn1ccnc1SCC(=O)N1CCN(S(=O)(=O)c2ccccc2)CC1,1.4,5.1,19.1,-1.5,2.3,4.1%
C=CC[C@H](CC(=O)NCCO)C(=O)NCCOC(=O)[C@@H](CC=C)Cc1ccc(F)cc1,-0.6,2.5,3.2,-0.4,8.4,0.2%
Cc1ccccc1NC(=O)NCCCN1CCN(C)CC1,x,x,8.4,2.1,-0.6,-1.1%
Cc1cccc(C)c1OCC(=O)Nc1ccc2c(c1)OCCO2,1.3,-17.1,12.8,-4.8,0.0,1.8%
O=[N+]([O-])c1ccccc1S(=O)(=O)N1CCN(c2ccccc2)CC1,x,x,8.2,-1.2,x,3.2%
O=C(NCCCn1ccnc1)c1cc(S(=O)(=O)N2CCOCC2)c(Cl)cc1Cl,-0.3,0.9,6.1,-0.1,0.7,0.6%
CCC(=O)Nc1cccc(NC(=S)NC(=O)c2ccccc2)c1,-0.4,45.4,-1.0,-3.7,-13.8,0.1%
Cc1cc(C)c(CC(=O)c2ccccc2)c(C)c1,2.3,-0.4,3.2,-1.2,0.5,14.2%
CN(CC(=O)NCCc1ccc(F)cc1)CC(=O)Nc1ccc(F)c(F)c1F,0.2,-3.9,7.1,1.6,-24.2,2.5%
Cc1nc(-c2ccc(S(=O)(=O)Nc3ccc(Br)cc3Cl)s2)cs1,0.6,-28.7,20.7,-1.4,8.1,0.2%
Cc1csc(NC(=O)c2cccnc2Cl)n1,0.5,-12.6,9.2,0.9,1.0,-0.9%
Cc1cc(C)c([N+](=O)[O-])cc1-c1ccc(/C=N/c2c(-c3ccco3)nc3ccccn23)o1,4.9,13.7,-28.3,6.7,-28.0,-0.3%
Cc1cccc(NC(=O)COc2ccc(-c3nn(C)c(=O)c4ccccc34)cc2)c1,3.8&3.9,0.5&23.8,-7.5,5.9,-6.1,0.9%&0.0%
O=C(O)COc1ccc(-c2nnn(Cc3ccccc3F)n2)cc1,0.3,10.7,-5.8,0.0,0.0,1.5%
CCC(=O)Nc1nnc(S(=O)(=O)N2CCc3ccccc32)s1,12.8&14.2,-23.3&12.1,-7.3,2.6,0.0,5.5%&0.8%
Cc1ccc(-c2[nH]nc3c2C(C)C(C#N)=C(N)O3)cc1 (centres undefined),-0.4,-13.4,0.7,-4.9,1.3,3.0%
COc1ccc(CCN2C(=O)N(c3cccc(OC)c3)C(=O)C2CC(=O)Nc2ccccc2)cc1 (centres undefined),1.1,-12.4,x,x,x,2.7%
O=C(CCS(=O)(=O)c1ccccc1)Nc1nc2c(s1)COc1ccccc1-2,0.7,-1.2,-4.8,0.8,-4.3,-1.1%
Cc1nc(N2CCN(S(=O)(=O)c3cccc4nonc34)CC2)c2c3c(sc2n1)CCCC3,0.3,15.1,-3.5,1.2,-14.2,4.3%[38.3 µM]
O=C(CCNC(=O)c1ccc(Br)cc1)Nc1ccc(S(=O)(=O)N2CCCCC2)cc1,-0.4,1.0,-11.2,-4.7,-1.5,8.6%
CCc1c(Cl)nc(N)nc1Nc1ccccc1Cl,1.5,5.9,0.0,3.7,2.6,3.7%
O=C(CN1CCN(S(=O)(=O)c2ccccc2)CC1)NC1CC1,0.1,15.9,-5.9,-5.2,4.2,1.7%
Cn1c(=O)c2cc(NC(=S)NC3CCCCC3)ccc2n1Cc1ccc(Cl)cc1,-1.0,x,-16.2,-1.9,-22.7,2.9%
O=C1C(=O)N(c2ccc(O)cc2)C(c2ccccc2[N+](=O)[O-])/C1=C(\O)c1ccccc1 (centres undefined),1.6,-13.1,4.2,-3.3,2.9,0.3%
CCN(CC(=O)Nc1c(F)cccc1F)C(=O)C1CCN(C(=O)Nc2ccccc2)CC1,1.6,3.8,7.3,2.0,-2.8,-0.8%
CCN(CC(=O)NCc1ccc(Cl)cc1)C(=O)COc1ccc(C)cc1C,0.9,4.3,0.0,-6.2,0.0,0.6%
COC(=O)C1=C(C(=O)OC)C2C(C)=CC(C)=CN2C(C(=O)OC)=C1C(=O)OC (centres undefined),-0.2,0.8,-3.4,-2.1,5.3,0.8%
COc1cccc(CNC(=O)CC2C(=O)NCCN2Cc2ccoc2)c1OC (centres undefined),2.5,3.5,-7.6,1.9,-17.5,-1.8%
Cc1ccc(/C=C(\NC(=O)c2ccc(C)cc2)C(=O)NCCCn2ccnc2)cc1,-0.1,-17.4,-3.4,-4.4,-4.8,-0.8%
CCn1c(NC(=O)c2ccccc2)nc2ccccc21,0.5,-3.1,2.1,-1.7,2.2,-1.0%
CCc1ccc(C(=O)CSc2nc(N)cc(=O)[nH]2)cc1,0.2,-6.9,2.1,1.4,2.8,-1.0%
O=C(COc1ccccc1Cl)N1CCNC1=O,-0.3,28.5,-5.7,0.4,1.9,4.7%
COC(=O)/C=C1\S/C(=N/N=C/c2ccc(Cl)cc2)NC1=O,1.2,1.4,-0.9,0.8,-2.8,2.6%
CCCNC(=O)N1CCC(n2nccc2NC(=O)CCOc2ccccc2)CC1,0.5,-10.3,7.8,0.2,-2.1,1.9%
CC1(C(=O)NCc2cccs2)Cc2c(-c3cccc(C(F)(F)F)c3)ccnc2O1 (centres undefined),-0.3,x,0.3,-3.1,-5.1,2.0%
CCC/C(C)=C/c1ccc(CC)cn1,0.3,11.6,-6.4,-2.0,-4.2,2.3%

# An excerpt of these results, with two lines to a compound:
# Order of values: TRPML1 agonist, TRPML1 blocker, Six1-Eya2 blk, D2 ag, CtBP-E1A inh, PINK1 modulator
COc1ccc(CCN2C(=O)N(c3cccc(OC)c3)C(=O)C2CC(=O)Nc2ccccc2)cc1 (centres undefined)
    1.1, -12.4, x, x, x, 2.7%
O=C(CCS(=O)(=O)c1ccccc1)Nc1nc2c(s1)COc1ccccc1-2
    0.7, -1.2, -4.8, 0.8, -4.3, -1.1%

# Continuation:
SMILES,TRPML1 agonist,TRPML1 blocker,Six1-Eya2 blk,D2 ag,CtBP-E1A inh,PINK1 modulator
O=C(CCC(=O)N1CCN(c2ccc(O)cc2)CC1)c1cccs1,-1.1,4.8,-1.0,1.7,x,-0.7%
CC1CCN(C(=O)c2ccc(N3C(=O)c4ccccc4C3=O)cc2)CC1,0.0,12.4,1.6,-0.8,6.8,2.9%
CN(Cc1ccco1)S(=O)(=O)c1ccc2c(c1)CCN2C(=O)CCC(=O)O,0.4,-20.9,0.3,-1.1,-2.1,7.5%
CCN(CCn1cccn1)C(=O)c1cc(COc2cc(C)ccc2C)on1,-0.3,0.8,1.2,-1.5,-7.2,-2.2%
CSC(=NC#N)N1CCN(C(c2ccccc2)c2ccccc2)CC1,4.0,-0.8,1.9,4.3,7.7,-1.1%
COCCNC(=O)c1cc2ncc(Br)cn2n1,0.1,-5.7,1.3,-0.2,-3.2,4.1%[38.3 µM]
O=C1CCN(C(=O)Nc2cccc(Cl)c2)N1,-0.3,-19.2,-2.1,-4.4,-0.3,-1.2%
N#Cc1ccc(COc2ccc(CCO)cc2-n2nc3ccccc3n2)cc1,-0.7,-4.5,-10.5,-3.5,-2.4,-2.2%
Cc1cccc(C(=O)Nc2cccc(C(=O)N3CCOCC3)c2)c1,2.9,-5.3,2.2,-0.3,3.7,6.7%[38.3 µM]
CCOc1cc(C2Nc3ccccc3C(=O)N2c2ccccc2)c(Br)cc1OCC(=O)O (centres undefined),0.1,5.3,1.5,-2.5,-12.1,0.5%
CCC1CCCCN1CCCNC(=O)C1CCCN(S(=O)(=O)N2CC(C)CC(C)C2)C1 (centres undefined),-1.0,-7.6,1.2,2.5,-0.3,-1.6%
COc1cc(C#N)ccc1OCC(=O)Nc1ccc(C)c(S(=O)(=O)N2CCOCC2)c1,-0.1,-6.5,-8.8,2.4,x,1.7%
CCOC(=O)Cn1c(=O)n(CC(=O)OCC)c2ccccc21,-0.6,-5.8,-0.3,-1.7,7.7,-0.3%
CCN(C(=O)CN1CCCCC1C)c1c(N)n(Cc2ccccc2)c(=O)[nH]c1=O (centres undefined),3.4,8.4,1.4,3.1,0.1,0.6%
Brc1ccc(-c2nc3ncccn3c2Nc2ccc3c(c2)OCCO3)o1,-0.5,-9.3,-10.4,4.3,-4.5,-0.7%
O=C(O)C1CC=CCC1C(=O)Nc1ccccc1 (centres undefined),0.1,-0.7,-5.0,-1.2,-0.8,3.9%
N#Cc1cnn2c(-c3cccc([N+](=O)[O-])c3)ccnc12,0.0,-5.1,-1.2,-3.1,8.1,0.4%
CCN(CC)C(=O)CSc1nnc(-c2ccccc2)o1,0.0,-1.0,3.9,-0.6,8.4,-3.5%[38.3 µM]
CCN(CC)CCCNC(=O)Cn1nc(-c2ccccc2)ccc1=O,1.2,-2.8,-1.2,-1.2,5.9,7.6%[38.3 µM]
CN(CC(=O)Nc1ccccc1N1CCOCC1)S(=O)(=O)c1ccc(F)cc1,2.1,-2.7,-0.3,-2.6,-0.8,-0.5%
COc1ccccc1C(=O)CN1C(=O)NC2(CCCCCC2)C1=O,-0.3,-4.4,-3.9,0.6,3.8,-0.5%
O=C1CCNc2c(Cl)cc(Cl)cc21,0.9,17.3,7.3,-4.2,-0.8,0.0%
COc1ccc(-c2nnc(SCC3CCCO3)n2C)cc1 (centres undefined),1.2,19.1,0.3,-5.2,0.6,1.5%
COc1ccc(S(=O)(=O)N2CCOCC2)cc1NC(=O)Cc1ccc(F)cc1,-0.7,-3.5,-3.1,-1.7,0.1,4.2%
CC(C)CCn1c(SCc2c(F)cccc2Cl)nc2ccsc2c1=O,1.6,6.0,x,x,x,1.3%

# Looked up by structure from the list above, 2 records:
SMILES,TRPML1 agonist,TRPML1 blocker,Six1-Eya2 blk,D2 ag,CtBP-E1A inh,PINK1 modulator
COc1ccc(S(=O)(=O)N2CCOCC2)cc1NC(=O)Cc1ccc(F)cc1,-0.7,-3.5,-3.1,-1.7,0.1,4.2%
CN(CC(=O)Nc1ccccc1N1CCOCC1)S(=O)(=O)c1ccc(F)cc1,2.1,-2.7,-0.3,-2.6,-0.8,-0.5%

# Bioassay records (PubChem)
